BasE inh: inhibitors of Acinetobacter baumannii siderophore enzyme BasE; purified BasE, fluorescence polarization binding displacement; inhibition, % (concentration not given with the values); 84,000 tested, 0.1% active;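 active = both replicates above 25% with normal brightness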;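 also: 0% = negative plate control signal and 100% = positive plate control signal; stock transfer was 100 nL into about 30 µL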
LANA-nucl inh: LANA-nucleosome interaction inhibition. z-score (test concentration not listed). FITC-LANA1-23 / chicken nucleosome fluorescence polarization; stronger effect = lower value. 51,000 tested, 0.3% active;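 active = both repeat wells score below -2 in polarization z-score versus plate sample wells, excluding overly bright wells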;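 also: 100 nL library stock added to about 30 µL; numbers are from one replicate; some results filed as inactive read as strong as hits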
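Assay system: FITC-LANA peptide and chicken nucleosomes; input: 240 nM purified chicken nucleosomes (480 nM peptide binding sites), final; also added: 50 nM FITC-LANA1-23 probe; medium: TEN-BT buffer, pH 7.5; doses: pin-transferred compound, 100 nL; times: 10–45 min, room temperature; technique: fluorescence polarization; replication: duplicates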
Active calls of the source: *; . = no result given; & = joins results of further samples. An excerpt; the hit share may differ from the screen's.

SMILES	BasE inh	LANA-nucl inh
CC(C(=O)Nc1ccc(Br)cc1)N1CCN(c2ccccc2)CC1 (stereo not given)	0.0	.
COc1ccc(-c2nc(CS(=O)CC(=O)NC3CCCC3)c(C)o2)cc1 (stereo not given)	-1.7	0.063
NC(=S)NCCC[C@H](N)C(=O)O	2.4	-0.14
Clc1cccc2c(N3CCCCCC3)cnnc12	-1.6	.
O=C1N=C(c2ccccc2)S/C1=C\c1ccc2c(c1)OCO2	-0.6	1.5
On1c(-c2ccc(Cl)cc2Cl)nc2ncccc21	.	-0.94
COc1cccc(OC)c1OCCNCc1ccco1	0.4	.
CCC(C)n1c(=S)[nH]c2ccccc2c1=O (stereo not given)	3.8	.
CCOC(=O)c1cc2c(=O)[nH]c(C(F)(F)F)nc2o1	-0.4	.
O=C1NCCN/C1=C\C(=O)c1ccccc1	1.9	0.003
O=C1c2ccccc2C(=O)n2ccnc21	5.6	-2
O=C(NCCc1ccccc1)C(F)(F)C(F)F	3.7	-0.55
CCOC(=O)c1c(NC(=S)NCc2cc(C)n(C)n2)sc2c1CCCC2	1.2	-0.97
CCCC(Nc1cccc(Br)c1)N1C(=O)CCC1=O (stereo not given)	1.6	-0.22
CCNc1c(NC(=O)Cc2ccccc2)c(=O)oc2ccccc12	-0.1	-0.37
CN1C(=O)/C(=C2\SC(=S)N(C(CC(=O)O)C(=O)O)C2=O)c2ccccc21 (stereo not given)	1.4	-0.12
Cc1cc2oc(=O)cc(CSc3nnc(-c4ccco4)n3CC(C)C)c2cc1Cl	1.3	.
CN1C(=O)C(O)(CC(=O)c2cccnc2)c2ccccc21 (stereo not given)	1.1	0.51
Cc1cc(C(=O)NC(C)C(C)(C)C)cs1 (stereo not given)	1.4	-0.99
CCOC(=O)c1c(C)n(C)c2cc(Br)c(C)cc12	1.9	-0.016
CCOc1ccc(-c2nc3ccc(-c4nc5ccc(N6CCN(C)CC6)cc5[nH]4)cc3[nH]2)cc1	1.4	-1.6
CCC(C)C(NC(=O)c1cccc(Cl)c1)C(=O)OC (stereo not given)	0.1	.
CN(C)CCCO[C@H]1[C@@H](C(O)CO)OC2OC(C)(C)O[C@H]21 (stereo not given in full)	2.0	0.05
Cc1cc2ncn(S(C)(=O)=O)c2cc1C	0.0	-1.6
N#CCSc1nnc(Cc2cccs2)n1C1CCCCC1	-1.2	.

The list continues:
SMILES	BasE inh	LANA-nucl inh
Cn1c(Sc2cnccn2)nnc1-c1ccc(F)cc1	1.7	.
CCc1ccc(N2C(=O)N(CC(=O)N(CC)CC)c3ccccc3S2(=O)=O)cc1	0.7	0.15
CCC(=O)Nc1ccc(C(=O)N2CCN(c3ccccc3)CC2)cc1	3.6	-0.53
O=C(COc1ccccc1)Nc1ccc2c(c1)nc1n2CCN(Cc2ccccc2)C1	-3.4	-0.16
CC(C)c1cc(C(=O)Nc2ccc3c(c2)OCCCO3)c2cnn(C(C)C)c2n1	2.0	.
Cc1cc(C(=O)Cn2cnnc2C#N)c(C)n1-c1ccc(Br)cc1	1.2	.
CCCn1c(CCC(=O)NC2=NCCS2)nc2cc(S(=O)(=O)N(CC)CC)ccc21	-0.3	.
C(=N\n1c(-c2ccco2)csc1=NCc1ccccc1)/c1cccnc1	-1.5	.
OC(COc1ccc(Cl)cc1)C(O)C(O)c1cnn(-c2ccccc2)n1 (stereo not given)	1.2	.
Cc1ccc(NC(=O)CCCSc2nc(-c3ccco3)cc(C(F)(F)F)n2)cc1	0.8	-0.44
CC(C)Cn1c(N)c(C(c2cccnc2)N2CCN(c3ccccc3)CC2)c(=O)[nH]c1=O (stereo not given)	-1.8	.
O=C(Cc1n[nH]c(=O)c2ccccc12)OCCCCN1C(=O)c2ccccc2C1=O	-1.7	.
COC(=O)/C(=C(/O)CSc1nnc(-c2ccco2)n1Cc1ccccc1)c1nc2ccccc2[nH]1	0.1	.
c1cncc(-c2nn3cnnc3s2)c1	0.8	0.34
Cc1[nH]c(=S)[nH]c(=O)c1CCO	1.4	0.51
CSc1ccc(-c2ccc3c(c2)OCCO3)nn1	0.6	0.025
CCC(=O)N(c1n[nH]c(=S)s1)C1CC1	0.4	.
O=C(C[n+]1cccc(C(=O)Nc2ccccc2)c1)c1ccc(N2C(=O)c3ccccc3C2=O)cc1	0.1	.
CCn1c(SCC(=O)NCc2ccc(Cl)cc2)nnc1-c1ccccc1OC	0.2	.
CCCCCN=C1NN=C(c2ccccc2)C(C(=O)Nc2cccnc2)S1 (stereo not given)	1.9	.
Cc1cc(OCC(=O)Nc2ccccc2N2CCN(C)CC2)cc(C)c1Cl	1.1	-0.93
COCCCn1c(C)cc(C(=O)CSc2ncnc3ccccc23)c1C	0.0	.
O=c1c2ccccc2[nH]c(=S)n1Cc1ccccc1	3.8	.
COc1c(C#N)sc2ccccc12	.	-1.2
CC1=CC(C)(C)N(C(=O)CSc2nnc3sc4ccccc4n23)c2ccccc21	-0.3	.

Complete entries from above. Values in the order: BasE inh	LANA-nucl inh
Results for CCOc1ccc(-c2nc3ccc(-c4nc5ccc(N6CCN(C)CC6)cc5[nH]4)cc3[nH]2)cc1 → 1.4	-1.6
Results for CCCC(Nc1cccc(Br)c1)N1C(=O)CCC1=O (stereo not given) → 1.6	-0.22
Results for CC1=CC(C)(C)N(C(=O)CSc2nnc3sc4ccccc4n23)c2ccccc21 → -0.3	.
Results for COc1cccc(OC)c1OCCNCc1ccco1 → 0.4	.
Results for CN1C(=O)/C(=C2\SC(=S)N(C(CC(=O)O)C(=O)O)C2=O)c2ccccc21 (stereo not given) → 1.4	-0.12

Next part
SMILES	BasE inh	LANA-nucl inh
N/C(=N\O)c1ccc(F)cc1	-2.5	.
COc1ccccc1-c1nn(-c2ccc(C(F)(F)F)cn2)c(=O)o1	0.7	0.23
CC(=O)N1CCN(C(=O)CCc2nc3ccccc3c(=O)[nH]2)CC1	2.0	.
CO[C@H]1O[C@H](COC(=O)c2ccccc2)[C@@H](O)[C@H](O)[C@H]1OC(=O)c1ccccc1	0.5	.
O=C(Nc1cccnc1)OCCN1CCOC1=O	0.1	-1.5
COC(=O)c1ccc2c(c1)NC(=O)C1CCCN21 (stereo not given)	.	-1.2
CCCCn1c(=O)n(C)c(=O)c2c(C(F)(F)F)cc(C)nc21	1.0	.
N#CC1=C(N)SC(N)=C(C#N)C1c1cc2c(cc1Cl)OCO2	16	-10
COc1ccc(CN(Cc2ccncc2)C(=O)CCC(=O)O)cc1	-1.3	0.68
CC(C)N=C(NS(=O)(=O)c1cccs1)c1ccccc1	1.0	.
COc1cc(SC)ccc1C(=O)N1CCCC(C)C1 (stereo not given)	-1.1	-0.79
CC1(C)NC(=O)N(CCSc2ccc(Cl)cc2)C1=O	1.3	-0.88
CC1Cc2cc(-c3nn(-c4ccccc4)cc3/C=c3\sc4nc(-c5cccs5)nn4c3=O)ccc2O1 (stereo not given)	21	0.2
CC1(C)CC(=O)C(CC(=O)N2CCN(S(=O)(=O)c3ccccc3)CC2)C(=O)C1	-0.9	.
Cc1ccc(S(=O)(=O)N2CCN(C(=O)COC(=O)/C=C/c3ccc(C)o3)CC2)c(C)c1	-0.4	.
COC(=O)c1ccccc1S(=O)(=O)N1CCC(C(=O)OCN2C(=O)c3ccccc3C2=O)CC1	1.6	.
CC(C)(C)OC(=O)N1CCCN(C(=O)Nc2ccc(F)cc2F)CC1	3.4	.
COc1ccc(Cc2nnc(SC(C)C(=O)Nc3ccc4c(c3)OCO4)n2C)cc1 (stereo not given)	2.6	0.26
CC1=NN(c2cccc(C(=O)O)c2)C(=O)/C1=C/c1ccc(-c2cccc(Cl)c2C)o1	0.4	.
Cc1ccc(S(=O)(=O)NC(=O)NN2CCCCCC2)cc1	-0.6&-2.0&0.3	0.052&-0.025&0.19&0.51&-1.4
CC(C)CCNC(=O)C1CC(=O)N(c2ccccc2)C1 (stereo not given)	1.0	-0.05
O=C(CSc1ccc2c(c1)CCC2)N1CCNC1=O	0.9	.
CCN(c1ccccc1)S(=O)(=O)c1cc(C(=O)N2CCCN(C)CC2)ccc1C	2.9	.
CCCCC1NC(=S)N(C2CCCCC2)C1=O (stereo not given)	1.7	0.43
Cc1nc2ccccc2c(=O)n1-c1cccc(NC(=O)C2CC2)c1	0.5	-0.66

Next section:
SMILES	BasE inh	LANA-nucl inh
COc1ccc(CN2CN(C(C)C)CSC2=S)cc1	-0.9	-0.56
O=C(N/N=C/c1ccc(F)cc1)c1ccc(CN2CCOCC2)cc1	-1.3	.
CCOc1ccc(CCNC(=O)c2cc(C)[nH]n2)cc1OCC	-0.1	-1.7
O=C(COC(=O)C1CC(=O)N(Cc2ccco2)C1)Nc1cccc2nsnc12 (stereo not given)	-6.3	.
CSCCC(C(=O)NC1=NCCS1)N1C(=O)c2ccccc2C1=O (stereo not given)	1.9	.
CN(Cc1cccs1)C(=O)c1cccc(C#N)c1	0.0	.
COC(=O)C1CCN(C(=O)Nc2ccccc2)CC1	-0.9	-0.41
COc1cc(-c2nnc(SCCSC)o2)cc(OC)c1OC	-1.5	.
O=C(Nc1nnc(-c2ccc3c(c2)CCCC3)o1)C1CC1	-3.7	2.8
O=C1COc2ccc(C(=O)COC(=O)COc3ccc4c(c3)CCC4)cc2N1	0.5	.
O=C(CNS(=O)(=O)c1ccccc1)Nc1ccc2c(c1)OCO2	-4.4	2.5
FC(F)(F)c1ccc(N2CCN(C(c3ccccc3)c3ccccc3)CC2)nc1	2.5	-1.7
COc1ccc(CCNC(=S)NCc2ccco2)cc1OC	-2.1	1.7
CCc1c(C)oc2cc3ccccc3c-2c1C	1.0	.
COc1ccc(/C=C/C(=O)CCC(=O)O)cc1	.	-0.65
O=C(O)c1c2c(nc3ccccc13)CCC2	0.4	-0.52
CCN(CC)c1cccc(Oc2ncnc3sccc23)c1	-13	.
CCCn1c2ccccc2c2cc(OC)ccc21	1.0	-0.49
COCCN=c1scc(-c2cccs2)n1/N=C/c1c(C)nn(-c2ccccc2)c1Cl	1.5	.
CC(=O)NC1=NC(=O)/C(=C/c2cccc(Oc3ccccc3)c2)S1	-0.1	.
O=c1[nH]nc(SCc2cn3ccccc3n2)c(=O)[nH]1	-0.8	.
CNC1c2c(ccc3ccccc23)OCC1CO (stereo not given)	.	-0.24
CC(C)(C(=O)Nc1cccc(Cl)c1)S(=O)(=O)c1ccc(C(F)(F)F)cn1	1.7	.
CC(C)CC(=O)NC(C(=O)N[C@H](C(=O)NC(CC(C)C)[C@@H](O)CC(=O)N[C@@H](C)C(=O)NC(CC(C)C)[C@@H](O)CC(=O)O)C(C)C)C(C)C (stereo not given in full)	-4.1	1.4
CSCCC(N=C1NS(=O)(=O)c2ccccc21)C(=O)N1CCN(C(=O)c2ccco2)CC1 (stereo not given)	-1.6	.

Further structures
SMILES	BasE inh	LANA-nucl inh
O=C(O)c1ccc(OCOc2ccc(C(=O)O)c(C(=O)O)c2)cc1C(=O)O	-1.0	0.17
CC(C)Cn1c(SCc2nnc(-c3cccs3)o2)nc(O)cc1=O	2.8	.
C=CCN1CC2=C(C1=O)C(c1ccccc1)NC(=O)N2 (stereo not given)	1.0	.
COC(=O)C1=CN(CCc2ccc(F)cc2)C=C(C(=O)OC)C1c1ccccc1C(F)(F)F	0.7	.
Cc1ccc(CN2CNc3nnnn3C2)cc1	-5.7	.
CCc1ccc(S(=O)(=O)N2CCSC2c2ccccc2)cc1 (stereo not given)	0.3	.
Cc1ccc2cc(C3CC(c4ccccc4)=NN3C(=O)CCC(=O)O)c(=O)[nH]c2c1 (stereo not given)	3.8	.
Nc1nc(SCCc2ccccc2)n[nH]1	1.4	0.08
COc1ccc(C2OC(=O)CC2C(=O)NCc2ccc(C)cc2)cc1OC (stereo not given)	-0.6	-0.07
O=C(O)c1ccnn1C(F)F	-0.8	0.095
Cc1ccc2nsnc2c1S(=O)(=O)N1CCCC1	-1.2	1.7
O=C(C1CC(=O)N(c2ccc3c(c2)OCCO3)C1)N1CCCSC1=Nc1ccccc1 (stereo not given)	-0.7	.
Cc1ccc2nc(COCC(=O)O)[nH]c2c1	1.2	-1.3
CC1CCCC(C)N1C(=O)CSc1nnc(C(F)(F)F)n1N (stereo not given)	2.2	.
CSc1ccnc2c1c(=O)n(C)c(=O)n2C	0.2	-1.4
N#Cc1cc2c(cc1N)OCO2	2.5	0.72
COc1ccc(-c2nnc(SCC(=O)N=Nc3c(O)[nH]c4ccccc34)n2-c2ccccc2)cc1OC	3.2	0.13
CCOC(=O)c1cnc2nc(C(F)(F)F)nn2c1N	-3.6	0.25
Cc1nnc(SCC(=O)c2cc(C)n(CC3COc4ccccc4O3)c2C)n(N)c1=O (stereo not given)	0.1	.
COCCn1nnnc1C(c1ccc(OC)c(OC)c1)N1CCc2ccccc21 (stereo not given)	1.4	-0.035
c1ccc(OCCSc2nnc(-c3c[nH]c4ccccc34)o2)cc1	3.1	.
O=C1c2cccc3cccc(c23)N1CN1CCCCC1	1.9	.
CCCc1cc(=O)oc2cc(OCC(=O)OCc3ccccc3)ccc12	0.1	.

6 compounds out of the list, arranged by SMILES length, low to high:
SMILES	BasE inh	LANA-nucl inh
CSc1ccnc2c1c(=O)n(C)c(=O)n2C	0.2	-1.4
O=C1c2cccc3cccc(c23)N1CN1CCCCC1	1.9	.
CCOC(=O)c1cnc2nc(C(F)(F)F)nn2c1N	-3.6	0.25
C=CCN1CC2=C(C1=O)C(c1ccccc1)NC(=O)N2 (stereo not given)	1.0	.
COCCn1nnnc1C(c1ccc(OC)c(OC)c1)N1CCc2ccccc21 (stereo not given)	1.4	-0.035
O=C(O)c1ccc(OCOc2ccc(C(=O)O)c(C(=O)O)c2)cc1C(=O)O	-1.0	0.17
